TRPML1 inh: inhibitors of human TRPML1 channel; TRPML1-inducible cells, Ca2+ dye fluorescence, FDSS; hits give low values; inhibition of EC80 agonist-evoked calcium signal; AID 624415; actives 0.02% (n = 390,000); Q9GZU1; activity change, negative = inhibition, % (test concentration not listed); in the data active means activity change below about -50%; inconclusive means about -30% to -50%; inactive means above about -30%;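 further: stimulus is agonist 54-4 at its EC80 concentration; on the % scale 0 is the no-effect control and ±100 the full control effect; compound concentration not given in the record; the text of the record puts the active cut at -80%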
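Tet-induced TRPML1-DL cells loaded with Ca8 no-wash calcium dye were read kinetically on FDSS. Compound addition was followed by EC80 agonist 54-4 (4 uM final); inhibition was read over 110 s.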
ClpP mod: qHTS Assay for Activators of ClpP; purified B. subtilis ClpP, FRET peptide cleavage, 20 min; ATP-dependent Clp protease proteolytic subunit (Bacillus subtilis (strain 168)), P80244; actives 1.9% (n = 340,000); Potency, µM (titrated, usually from 57.5 µM), without a hit: top-dose activity change, negative = active; active = well fitted falling curve with a large enough effect; inconclusive = small, poorly fitted or top-dose-only effect; inactive = no such curve, though single readings can be large or run the other way; further: potency means the concentration at half of the fitted maximal effect; the source files actives as falling curves though it sought activators and does not explain the sign; nearly all actives have a fitted effect of over 65% in size; many hits overshoot -100%
Target sequence (P80244 whole entry, looked up): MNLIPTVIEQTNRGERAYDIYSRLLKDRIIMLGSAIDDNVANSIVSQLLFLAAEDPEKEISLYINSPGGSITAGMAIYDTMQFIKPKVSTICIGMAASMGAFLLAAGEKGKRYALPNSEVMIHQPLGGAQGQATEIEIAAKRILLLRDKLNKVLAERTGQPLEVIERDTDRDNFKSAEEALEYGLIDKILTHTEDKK
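ClpP 10 microg/mL final, pH 8 Tris/KCl buffer with BSA, glycerol, Tween-20; compound pinned in; FRET-FV substrate; RT 20 min; Ex320/Em430; ΔFRET vs ADEP 5.8 microM, DMSO, no enzyme.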
TRPML1 ag: activates the human TRPML1 channel. Q9GZU1. TRPML1-expressing cells, Ca2+ dye fluorescence, FDSS; host cell line not named in the record; reference of the full effect not given here. activation, % (concentration not given with the values). actives 0.12% (n = 410,000); in the data active = activation above about 50%; inconclusive = about 30% to 50%; inactive = below about 30%; further: 0% is about no effect; the text of the record puts the active cut at 80%
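Agonist activity was taken from a 110 s kinetic Ca2+ dye read on the FDSS after pinning compounds onto TRPML1-DL cells. The cells were seeded at 1,500/well with Tet inducer, incubated about 16 h, then dye-loaded at room temperature.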
Menin MLL FP FL: menin-MLL binding inhibition, fluorescein peptide | 290,000 tested, under 10 active | Fluorescence polarization, fluorescein-MLL peptide displacement from menin | FP activity change, % at 61.4 µM; inconclusive = falling polarisation curve, or a change in total fluorescence; inactive = total fluorescence flat and polarisation flat or rising; no compound was filed as active; the % refers to the polarisation; negative = inhibition;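 further: % of control where 0% means no effect; inhibitors lower the polarisation; unlabelled MLL peptide was the positive control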
PINK1 modulator: changes PINK1 expression; PINK1 immunofluorescence, high-content cytometry, 24 h; Potency, µM (doses to about 76.6 µM), without a hit: at the highest dose activation (PINK1 increase), actives largely listed as activators; actives 0.2% (n = 410,000); active = well fitted activation curve with a large enough effect; inconclusive = small, poorly fitted or top-dose-only effect; inactive = flat fitted curve, though single readings scatter; cell line not stated here;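 further: potency means the concentration at half of the fitted maximal effect; % of control where 0% means no effect; nearly all actives have a fitted effect of over 65% in size; a mitochondrial uncoupler was the plate control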
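Stable cell line treated 24 h with compounds at 5 concentrations (CCCP controls), then fixed and immunostained for PINK1 plus nuclear and cell stains; PINK1 immunofluorescence quantified by laser-scanning microplate cytometry.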
Sfp inh: Sfp phosphopantetheinyl transferase inhibition | Biochemical Sfp PPTase activity, qHTS | Potency, µM, without a hit: max response, negative = inhibition, most hits filed as inhibitors | actives 3.5% (n = 310,000) | AID 1490 | Q9F4F7; active means well fitted inhibition curve with a large enough effect; inconclusive means small, poorly fitted or top-dose-only effect, or another doubt; inactive means no such curve, though single readings can be large or run the other way;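 further: the enzyme is Sfp with the accession as filed and its product quenches rhodamine fluorescence; potency means the concentration at half of the fitted maximal effect; 0% = enzyme reaction without inhibitor and -100% = no enzyme wells; top concentration of the series not given in the record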
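After 15 min at room temperature with compound, 15 nM Sfp received 5 uM rhodamine-CoA plus 12.5 uM BHQ-2-ybbR (50 mM Hepes pH 7.6, 10 mM MgCl2). Rate came from the fluorescence difference over 30 min, ex 525/em 598 nm.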
TRPV1 potentiator: human TRPV1 potentiation; TRPV1-expressing cells, Fluo-8 calcium influx, capsaicin EC20 potentiation; host cell line not named in the record; control for the full effect not named in the record; potentiation, % at 8.33 µM; Q8NER1; actives 0.02% (n = 320,000); AID 540277; active means potentiation above 80%; inconclusive means 30% to 80%; inactive means below 30%; further: 0% is about no effect
Target sequence (Q8NER1 whole entry, looked up): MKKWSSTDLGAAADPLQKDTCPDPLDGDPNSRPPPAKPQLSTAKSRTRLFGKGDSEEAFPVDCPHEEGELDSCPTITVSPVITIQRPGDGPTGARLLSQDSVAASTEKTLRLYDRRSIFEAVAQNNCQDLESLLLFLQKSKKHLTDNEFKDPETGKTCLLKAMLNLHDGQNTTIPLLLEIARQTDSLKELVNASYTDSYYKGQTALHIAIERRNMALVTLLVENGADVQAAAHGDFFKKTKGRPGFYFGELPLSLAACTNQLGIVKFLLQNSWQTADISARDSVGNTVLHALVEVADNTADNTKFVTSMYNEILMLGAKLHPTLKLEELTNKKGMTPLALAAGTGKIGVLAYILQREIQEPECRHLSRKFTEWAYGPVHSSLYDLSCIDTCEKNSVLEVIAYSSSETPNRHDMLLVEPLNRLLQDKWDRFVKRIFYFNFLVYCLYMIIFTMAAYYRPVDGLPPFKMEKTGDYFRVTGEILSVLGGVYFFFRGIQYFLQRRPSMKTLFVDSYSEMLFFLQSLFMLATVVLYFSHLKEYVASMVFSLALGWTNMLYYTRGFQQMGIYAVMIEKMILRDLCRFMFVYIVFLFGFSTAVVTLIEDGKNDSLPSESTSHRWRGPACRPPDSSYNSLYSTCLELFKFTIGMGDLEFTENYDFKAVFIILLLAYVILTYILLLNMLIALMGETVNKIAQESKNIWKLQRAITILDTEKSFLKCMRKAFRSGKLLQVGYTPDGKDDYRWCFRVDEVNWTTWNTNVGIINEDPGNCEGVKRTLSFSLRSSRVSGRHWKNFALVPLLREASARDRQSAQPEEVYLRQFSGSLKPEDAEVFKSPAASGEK
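Cells expressing TRPV1 were dye-loaded with Fluo-8 and read kinetically: 10 s baseline, 3 min after compound (agonist portion), then 2 min after EC20 capsaicin (allosteric enhancer portion). Calcium-bound dye fluorescence at 480/520 nm.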
The depositor's hits bear a star; ? = inconclusive; / = not tested or not shown; & = joins results of further samples; [ ] = another dose, or the depositor's remark.

Sample of the layout:
SMILES	TRPML1 inh	ClpP mod	TRPML1 ag	Menin MLL FP FL	PINK1 modulator	Sfp inh	TRPV1 potentiator
Cc1nc2cc(N3CCN(C)CC3)c(NC(=O)Cc3ccccc3)cc2c(=O)n1Cc1ccccc1	3	0.3%	0.8	4.6	0.6%	5%	18
CCOc1ccccc1C(=O)NCC(=O)N(C)Cc1ccccc1C	9	-2.4%	1.3	1.6	-1.1%	3%	4
CCc1nc(Nc2ccc(OC)c(OC)c2)c2nnn(Cc3ccccc3Cl)c2n1	-5	25%	1.1	2.2	4.1%	2%	-59

Results, repeating the preview:
SMILES	TRPML1 inh	ClpP mod	TRPML1 ag	Menin MLL FP FL	PINK1 modulator	Sfp inh	TRPV1 potentiator
Cc1nc2cc(N3CCN(C)CC3)c(NC(=O)Cc3ccccc3)cc2c(=O)n1Cc1ccccc1	3	0.3%	0.8	4.6	0.6%	5%	18
CCOc1ccccc1C(=O)NCC(=O)N(C)Cc1ccccc1C	9	-2.4%	1.3	1.6	-1.1%	3%	4
CCc1nc(Nc2ccc(OC)c(OC)c2)c2nnn(Cc3ccccc3Cl)c2n1	-5	25%	1.1	2.2	4.1%	2%	-59
Cc1cccc(NC(=O)c2cccs2)n1	31	0.9%	0.2	-0.7	0.2%	?	?
CCOC(=O)N1CCN(CC(O)COCCC23CC4CC(CC(C4)C2)C3)CC1 (configuration not stated)	-2	1.2%	-0.5	2.2	1.9%	15%	-11
CCCc1nnc(NC(=O)C2CCN(C(=O)c3ccco3)CC2)s1	4	/	0.2	1.1	0.4%	-3%	3
Cc1ccc(CCNC(=O)c2ccc(CS(=O)(=O)c3ccccc3C)o2)cc1	8	-0.5%	-1.7	/	-1.2%	1%	6
CCOc1ccc(OCC)c(NC(=O)CCc2c(C)nc3c(c2C)c(=O)n(C)c(=O)n3C)c1	18	-4.5%	-0.9	/	1.0%	/	/
CC(=O)Nc1ccc(S(=O)(=O)N=S(C)(C)=O)cc1	8	-4.4%	-0.2	0.6	1.0%	12%	6
CC(C)CNC(=O)c1ccccc1NC(=O)Nc1ccccc1	12	0.2%	2.7	1.2	-2.3%	8%	-5
COCCn1c(C)cc(O)c(C(c2ccc(F)cc2)N2CCN(c3ccccc3)CC2)c1=O (configuration not stated)	-5	-0.1%	-0.6	/	-0.9%	/	/
CC(C)c1csc2nc3n(c(=O)c12)CCCCC3	5	/	0.7	2.7	1.1%	6%	-10
CCCN(CCC)CCCNC(=O)Cn1ncc2c3ccccc3n(Cc3ccc(F)cc3)c2c1=O	-4	-23%	-0.2	/	0.6%	/	/
COc1cccc(C(=O)OCC(=O)NCCNC(=O)COC(=O)c2cccc(OC)c2OC)c1OC	6	-4.4%	0.3	/	-1.3%	12%	7
Cc1ccc(NC(=O)CCN2CCC(C(N)=O)CC2)cc1	1	/	1.0	-6.2	0.1%	15%	12
CCOc1cc(/C=N/n2c(C)nc3ccccc3c2=O)ccc1O	4	/	0.9	0.0	0.0%	15%	17
Cc1ccc(OCC(=O)Nc2ccc(S(=O)(=O)N3CCOCC3)cc2)c(Br)c1	-5	-4.6%	0.0	5.6	?	20%	-3
O=S1(=O)c2ccccc2C(O)(c2ccccc2)c2ccccc21	13	/	0.8	/	5.2%	/	/
COc1ccc(C2=NS(=O)(=O)N(C)C(C(=O)NCc3ccccc3)=C2)cc1OC	-3&4	-0.9%&-1.0%	-0.5&2.0	-3.0	0.4%&-1.5%	2%	-27
N#CC1C(=O)Nc2cccnc21 (configuration not stated)	-1	3.2%	-0.1	/	1.5%	/	/
CCCCNC(=O)[C@]1(C)CCC[C@@]2(C)C3CC[C@@]4(C)C[C@]3(CCC21)CC4=O (some centres not stated)	11	0.6%	-1.3	/	-1.7%	/	-14
CC1CCCC(NC(=O)/C=C/c2c(F)cccc2Cl)C1C (configuration not stated)	-8	/	2.7	/	3.3%	/	/
O=C(NCC(c1ccc2c(c1)OCO2)N1CCOCC1)C(=O)Nc1ccc(Cl)cc1 (configuration not stated)	11	-1.2%	1.2	/	-0.7%	/	/
CCCNC(=O)CSc1cn(CC(=O)N2CCCCCC2)c2ccccc12	-15	-5.0%	0.6	/	2.0%	/	/
C/C(=N\NC(=O)c1cccnc1)c1cc(C)oc1C	-6	-2.5%	0.6	2.3	-0.2%	-4%	-10
CC(=O)N1C(=O)C2(C(C#N)=C(N)Oc3n[nH]c(-c4ccccn4)c32)c2ccccc21 (configuration not stated)	-1	1.8%	-0.7	4.3	0.8%	-5%	1
Cc1ccc(C(=O)OCC(=O)NC2CCCCCCC2)cc1C	2	-0.7%	-1.1	/	1.9%	/	/
CCCCn1nnnc1C(c1cc2ccccc2o1)N(C)Cc1ccccc1 (configuration not stated)	/	1.1%	0.5	/	-0.3%	/	/
Cc1cccc(C(=O)OCC(=O)c2c(N)n(CC(C)C)c(=O)n(C)c2=O)c1O	9	/	2.2	/	1.6%	/	0
O=C(COc1ccc(Cl)cc1)Nc1c(-c2cccs2)nc2ccccn12	22	?	0.1	11	?	-6%	-12
CCCCC1=CC2=CC(=O)C(C)(OC(=O)CC)C(=O)C2=CN1CCOC (configuration not stated)	-6	-2.5%	-0.2	-3.8[11.7 µM]	1.2%	4%&7%	-9
O=C1CSC2(C(=O)N(Cc3ccccc3)c3ccccc32)N1c1ccc(Cl)cc1 (configuration not stated)	-11	0.8%	1.7	/	-0.4%	/	/
CCc1ccc(S(=O)(=O)NCc2cccs2)cc1	19	-2.4%	1.9	/	3.1%	17%	-4
CCn1c(CCC(=O)Nc2nc3c(s2)CCCC3)nc2cc(S(=O)(=O)N(C)C)ccc21	-4	0.1%	-0.7	5.2	-1.6%	0%	2
Cc1ccccc1C(=O)NCc1nnc(SCC(=O)N2c3ccccc3Sc3ccccc32)n1C	-9	-1.6%	-0.3	-0.8	-0.2%	-13%	-17
O=S(=O)(c1ccc2nc(N3CCN(c4ccc(F)cc4)CC3)ccc2c1)N1CCCCC1	1	-23%	0.5	/	7.4%	79µM*	23
FC(F)(F)C(F)(F)C(F)(F)c1nc2nc(Cl)c(Cl)nc2[nH]1	7	4.2%	0.0	/	-0.4%	/	/
Cc1nnc(SCC(=O)Nc2cccc(S(=O)(=O)NC3=NCCCCC3)c2)n1Cc1ccccc1	-4	-0.5%	1.5	2.7	-1.4%	21%	2
O=C(CCl)Nc1cc(SCC(O)CO)cc([N+](=O)[O-])c1 (configuration not stated)	-11	/	0.0	3.4	-1.8%	71µM*	-2
Cc1sc(-c2ccccn2)nc1OC(=O)c1ccc(Cl)cc1	0	-1.3%	-0.9	2.4	9.9%	-19%	15
CCC1(c2ccccc2)NC(=O)N(CC(=O)Nc2cccnc2Cl)C1=O (configuration not stated)	-5	-1.7%	1.9	/	-0.6%	/	-1
C[C@@H]1[C@H]2[C@@H](O[C@@H]3O[C@H](CO)[C@@H](O)[C@H](O)[C@H]3O)OC=C(C(=O)O)[C@H]2C[C@@H]1O	3	-0.7%	-0.1	/	0.9%	/	-2
O=C(NCCCN1CCOCC1)c1ccc(Cl)s1	-9	-2.7%	-0.4	2.7	0.4%[38.3 µM]	6%	14
OC1CCC(NC(=S)Nc2ccc(SC(F)F)cc2)CC1 (configuration not stated)	-11	/	0.7	0.3	1.4%	5%	-19
CC(C)=CCC/C(C)=C/CNC(=O)C[C@H]1C[C@H](C(=O)N2CCOCC2)[C@@]2(C)c3[nH]c4cc(CCC(=O)N(C)C)ccc4c3CCN2C1=O	6	-0.7%	0.7	/	?	/	/
CC[C@@H]1[C@H]2CCCC(=O)N3CC[C@@H](C[C@@H]1Nc1ccccc1)[C@@H]23	12	0.0%&-0.9%	-0.6&0.6	0.5	-0.4%	8%	-10
CCc1cc2ccc(C)c(C)c2nc1SCC(=O)Nc1cc(C)on1	8	-15%	-0.7	-0.1	6.6%	11%	3
O=C(Nc1cc(Sc2nc3ccccc3s2)cc([N+](=O)[O-])c1)c1cccc(F)c1F	5	-2.7%	0.8	3.0	2.8%	10%	13
CCOC(=O)C[C@H]1c2cc(F)ccc2S(=O)(=O)N1c1ccccc1	-6	-2.2%&1.6%	0.4&-1.0	/	3.0%	/	/
CN(C)CCNC(=O)C(=O)NCC(c1cccnc1)N1CCN(c2ccccc2)CC1 (configuration not stated)	-19	-0.1%	0.2	/	-0.9%	/	/

New compounds follow
SMILES	TRPML1 inh	ClpP mod	TRPML1 ag	Menin MLL FP FL	PINK1 modulator	Sfp inh	TRPV1 potentiator
COc1ccccc1N1CC(C(=O)Nc2ccc(C)c(S(=O)(=O)N3CCOCC3)c2)CC1=O (configuration not stated)	5	-0.7%	3.3	/	0.1%	/	/
COc1ccc(S(=O)(=O)N2CCCCC2)cc1NC(=O)c1cccc(S(=O)(=O)N2CC(C)OC(C)C2)c1 (configuration not stated)	2	-5.0%	-0.4	/	-0.5%	/	/
CCN1CCN(c2cc(C)c3cc(NC(=S)NCCN(C)C)ccc3n2)CC1	-5	3.0%	-0.2	1.5	1.5%	5%	-1
COc1ccc(CCNC(=O)C2CC(=O)N(CCc3ccccc3)C2)cc1OC (configuration not stated)	-8&-6	-2.0%&0.0%	-0.4&1.0	1.8	0.5%&1.2%	8%	-5
CCCn1ncc(CN2CCN(CCc3ccccc3)C(CCO)C2)c1C (configuration not stated)	18	-1.3%	1.4	-0.3	-0.7%	4%	-2
C=CCOc1cccc(CNCc2ccncc2)c1	-2	0.1%	0.1	-4.4	-0.8%	5%	-14
CCCN1CCN(CCCNC(=O)c2ccc3c(=O)n(CCc4ccccc4)c(=O)[nH]c3c2)CC1	2	/	-0.1	1.4	10%	1%	-8
CCOc1ccc(NC(=O)c2cc(S(=O)(=O)N3CCCCCC3)cn2C)cc1	-6	-0.3%	1.1	/	6.9%	/	/
CC(C)(C)C(O)C(Cc1ccccc1Cl)n1cncn1 (configuration not stated)	-26	-0.9%	0.2	-1.0	0.7%	6%	15
COc1ccccc1NC(=O)c1ccc(-n2cccn2)c([N+](=O)[O-])c1	4	/	0.5	2.2	-1.0%	4%	0
CCN=c1scc(-c2ccc3c(c2)NC(=O)CO3)n1N=C1CCCC1	-6&7	1.0%	-0.9&-1.4	16	1.8%&-0.4%	?	25
CCOP(=O)(OCC)C(NC(=O)c1ccc(OC)cc1)c1ccccc1 (configuration not stated)	14	-1.4%	-0.9	-2.8	-0.4%	18%	-5
N#C/C(=C\c1ccc(O)c(Br)c1)C(=O)N1CCCCC1	3	-12%	-0.2	5.3	-1.7%	4%	7

Screening data deposited in PubChem BioAssay by National Center for Advancing Translational Sciences (NCATS).
